Source: PubChem (several laboratories)
MT1-MMP reporter: inhibitors of MT1-MMP promoter transcription, cell-based, luciferase reporter, luminescence (AID 618) | MT1-MMP promoter luciferase reporter cells, luminescence | calls from a first round at 10 µM; hits with a dose series show EC50 in µM | 87,000 tested, 0.62% active;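 active = over half of the reporter light lost at 10 µM or EC50 under 50 µM; inactive = the rest and hits that failed the dose series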;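 note: actives suppress MT1-MMP promoter-driven transcription so potencies describe inhibitors; HT1080 fibrosarcoma cells; overnight exposure; toxic or luciferase-blocking compounds were not removed from the actives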
WNV protease inh: inhibitors of WNV NS2B-NS3 protease, primary screen, biochemical, fluorogenic substrate | fluorogenic substrate Ex360/Em465; active compounds read low | AID 577, 2007 | Genome polyprotein (West Nile virus), P06935 | z-score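 (tested at a level between 10 and 100 µM)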 | 65,000 tested, 0.18% active;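 active = z-score at -3 or under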;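 note: score is relative to mean and spread of the compound wells of a plate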
Target sequence (P06935 1371-1501 limits assumed): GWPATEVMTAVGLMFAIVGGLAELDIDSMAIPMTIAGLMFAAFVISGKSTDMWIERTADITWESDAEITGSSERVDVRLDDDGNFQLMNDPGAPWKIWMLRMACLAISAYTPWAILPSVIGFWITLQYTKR
Target sequence (P06935 1502-1679 limits assumed): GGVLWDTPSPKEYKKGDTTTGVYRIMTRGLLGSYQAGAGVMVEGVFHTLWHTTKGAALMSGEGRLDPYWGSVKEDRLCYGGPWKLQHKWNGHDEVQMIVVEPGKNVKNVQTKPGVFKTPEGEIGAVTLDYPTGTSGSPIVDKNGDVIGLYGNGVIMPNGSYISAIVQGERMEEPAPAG
Hsc70 ATP site: Hsc70 inhibitors, probe displacement, primary screen, biochemical, fluorescence polarization (AID 568); Hsc70 fluorescence polarization, probe displacement; higher % means a stronger effect; strong numbers were not always called active; 83,000 tested, under 10 active; displacement, % at 20 µM, or IC50 in µM where a hit was titrated; Heat shock cognate 71 kDa protein (Homo sapiens);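 active = displacement above 50% without optical interference and an IC50 on retest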;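 note: ATPase domain with a fluorescein-tagged ATP probe; 0% = vehicle and 100% = excess ADP; read after one hour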
An asterisk follows results filed as active; i = inactive; x = not tested or not shown; + = active, no number.

| structure | MT1-MMP reporter | WNV protease inh | Hsc70 ATP site |
| --- | --- | --- | --- |
| O=C(c1ccc(S(=O)(=O)N2CCOCC2)cc1)N1CCN(C2=NS(=O)(=O)c3ccccc32)CC1 | i | x | -3.2% |
| O=C(COC(=O)C1CC(=O)N(c2ccc3c(c2)OCCO3)C1)Nc1ccc2c(c1)CCC2 (stereo not given) | i | -0.61 | 1.9% |
| CCCCCOC(=O)Cn1c(SCC(=O)Nc2ccccc2)nc2c1c(=O)[nH]c(=O)n2C | i | -0.46 | -7.0% |
| COc1cc2c(cc1OC)C1(CCCC1)CNC2C (stereo not given) | i | 0.83 | -2.2% |
| CCCn1c(=O)n(C)c(=O)c2c(SCC(=O)NCc3ccco3)nc(C3CC3)nc21 | i | x | 3.6% |
| CCOC(=O)CSc1nnc(CNC(=O)c2ccco2)n1-c1ccc(F)cc1 | i | 0.04 | -8.2% |
| CCOc1ccccc1N(CC(=O)N1CCOCC1)S(=O)(=O)c1ccccc1 | i | 0.01 | 0.8% |
| C=CCOC(=O)C1=C(C)OC(N)=C(C#N)C1c1ccoc1 (stereo not given) | i | -0.24 | -31.1% |
| CCOC(=O)C1C(c2ccccc2Cl)NC(=O)N(C)C1(O)C(F)(F)F (stereo not given) | i | 0.00888 | 4.0% |
| CC1=C(C(=O)OC(C)C)C(c2ccc(F)cc2)NC(=O)N1 (stereo not given) | i | -0.68 | 2.8% |
| O=C(COc1ccc(Cl)cc1)N1CCN(c2cccc(C(F)(F)F)c2)CC1 | i | x | 2.6% |
| COc1ccc(CN=CC2=C(O)CNC2=O)cc1OC | i | -0.96 | 4.0% |
| CC(=O)N1CCc2cc(C(=O)CN3CCC(C)CC3)ccc21 | i | -0.91 | 2.8% |
| CCCn1c(CNC(=O)Cc2ccccc2)nc2ccccc21 | i | -0.76 | -3.1% |
| Cc1ccccc1Cc1c(C)nc2nc(SCC(=O)NCc3ccco3)nn2c1C | i | -0.89 | 1.9% |
| COC(=O)COc1ccc(S(=O)(=O)N2CCN(c3ccc(F)cc3)CC2)cc1 | i | x | 4.7% |
| O=C(CSc1ncnc2nc[nH]c12)N1CCN(c2ccc(Cl)cc2)CC1 | i | -0.36 | -3.4% |
| COc1ccc(C(=O)CSc2nnc(-c3ccccn3)n2Cc2ccco2)cc1 | i | -0.78 | 4.8% |
| Nc1ccc(C(=O)Nc2ccco2)cc1 | i | x | -2.3% |
| Cc1ccc(-c2cc(-c3ccc(F)cc3)nc(N)c2C#N)o1 | i | 0.82 | -2.6% |
| COCCN1C(=O)C(=O)/C(=C(/O)c2ccc3c(c2)OCCO3)C1c1ccc(C(=O)OC)cc1 (stereo not given) | i | -0.14 | 0.8% |
| COC(=O)c1cccc(Nc2cc(C)nc(-c3ccccc3O)n2)c1 | i | 0.5 | 46.0% |
| CC1=C(C(=O)Nc2ccccc2)C(c2ccco2)NC(=O)N1 (stereo not given) | i | x | -1.2% |
| CCC1(C)Cc2c(C#N)c(N)n(-c3ccccc3)c(=O)c2CO1 (stereo not given) | i | -1.11 | 0.9% |
| CC(C)Oc1ccc2c(=O)c(-c3ccccc3)coc2c1 | i | 0.36 | 1.0% |
| c1ccc(OCCCc2nc(-c3ccccn3)no2)cc1 | i | 0.64 | 3.6% |
| CCc1ccc(O)c(N=Cc2cccc(C)c2O)c1 | i | 0.94 | -15.3% |
| COc1ccc(-c2c3c(=O)n(C)c(=O)n(C)c3cn2-c2cccc(OC)c2)cc1 | i | 0.38 | 5.9% |
| Cc1ccc(CNC(=O)C2C3C=CC(C3)C2C(=O)O)cc1 (stereo not given) | i | -0.49 | 1.3% |
| COc1cccc(C(=O)NCc2cn3ccsc3n2)c1 | i | -0.08 | -1.5% |

Next compounds.
| structure | MT1-MMP reporter | WNV protease inh | Hsc70 ATP site |
| --- | --- | --- | --- |
| Cc1ccc(-c2cc(C(F)(F)F)n3nc(C(=O)Nc4c(C)n(C)n(-c5ccccc5)c4=O)cc3n2)cc1 | i | x | 2.3% |
| Fc1ccc(Cn2cnc3ccccc32)cc1 | i | x | -2.1% |
| Cc1nc(CC(=O)Nc2nc(-c3ccccc3)cs2)cs1 | i | -0.05 | -3.3% |
| O=C(CCSCCc1ccccn1)Nc1nccs1 | i | 0.02 | 1.3% |
| CS(=O)(=O)Nc1ccc(C(=O)NCc2ccco2)cc1 | i | -0.34 | 3.0% |
| COc1c(F)c(F)c(C(=O)Nc2cccc(Cl)c2N2CCOCC2)c(F)c1F | i | 0.43 | 4.9% |
| N#CCSc1nc2ccccc2c(=O)n1-c1ccccc1 | i | -0.95 | 0.9% |
| CCN(CC)CCn1c(=N)n(CCO)c2ccccc21 | i | 0.51 | 3.2% |
| Cc1cc(N2CCCC2=O)cc(C)c1CN1C(=O)c2ccccc2C1=O | i | -0.7 | -8.3% |
| O=C(NCc1ccco1)c1cc(S(=O)(=O)N2CCOCC2)ccc1Cl | i | 0.65 | 1.6% |
| O=C(CCCOc1ccccc1)N1CCN(c2ccccn2)CC1 | i | 0.19 | -4.1% |
| O=C(CSc1nnc(-c2ccccn2)n1Cc1ccco1)c1ccc(-c2ccccc2)cc1 | i | -0.08 | -4.0% |
| O=C(CCCCCn1c(=O)[nH]c2ccccc2c1=O)NCCCN1CCN(c2ccccc2F)CC1 | i | 1.84 | 5.0% |
| CCOc1ccc(N2C(=O)c3cccnc3C2Nc2ccc(OC)cc2)cc1 (stereo not given) | i | 0.37 | -1.3% |
| COc1ccc(-n2c(=O)c3ccccc3n(CC(=O)NC3CCCC3)c2=O)c(OC)c1 | i | -0.3 | -15.8% |
| C=CCN1C(=O)CSc2ccc(C(=O)NCCC3=CCCCC3)cc21 | i | x | 2.0% |
| C/C(=C\C(=O)c1ccc(C)o1)Nc1ccc2c(c1)OCO2 | i | -0.07 | -0.1% |
| CCS(=O)(=O)c1ccc2oc(SCC(=O)NC(C)C3CC4CCC3C4)nc2c1 (stereo not given) | i | x | -0.4% |
| COc1ccc(CCNc2oc(Cc3ccccc3)nc2C#N)cc1OC | i | 1.37 | -7.2% |
| CCCSc1nnc2[nH]c(=O)cc(N)n12 | i | -0.43 | -1.2% |
| CCOc1cc(/C=C2/NC(=O)N(Cc3ccccc3F)C2=O)ccc1O | i | x | 0.7% |
| c1cn2cc(CN3CCOCC3)nc2s1 | i | 1.16 | 5.5% |
| CN(C)CCCNCCCNC(=O)c1ccccn1 | i | -1.01 | -2.9% |
| O=C1c2cccc3cccc(c23)C(=O)N1c1nccs1 | i | 1.72 | 3.3% |
| Cc1cc(NC(=O)CSc2nccn2-c2ccc(Cl)cc2)no1 | i | 0.91 | 1.4% |
| CCCC(C)n1[nH]c(=O)cc1N (stereo not given) | i | 0.28 | 3.0% |
| Cc1cccc(C)c1OCC(=O)Nn1c(COc2ccccc2)nc2ccccc2c1=O | i | x | 4.5% |
| CN(C#N)c1nc(N2CCOCC2)nc(N2CCOCC2)n1 | i | 0.3 | 0.8% |
| CCOC(=O)c1sc(NC(=O)CCSC)nc1C | i | 0.82 | 4.8% |
| Cc1onc(-c2ccccc2)c1C(=O)Nc1ccc2c(c1)OCCO2 | i | -0.34 | -0.7% |

Carrying on:
| structure | MT1-MMP reporter | WNV protease inh | Hsc70 ATP site |
| --- | --- | --- | --- |
| N#Cc1c2c(c(-c3ccccc3)[nH]c1=O)CCCC2 | i | 0.07 | 3.3% |
| O=C(NC1CC2CCCC(C1)N2S(=O)(=O)c1ccccc1)c1ccccc1 (stereo not given) | i | -1.51 | -1.2% |
| COc1ccc(CN(C(=O)c2ccccc2OC)C2CCS(=O)(=O)C2)cc1 (stereo not given) | i | -0.53 | 5.9% |
| CCn1c(SCC(=O)c2ccc(Cl)s2)nnc1-c1cccs1 | i | 0.21 | -28.9% |
| CCCC(=O)Nc1ccc(N2CCCCC2)cc1 | i | -0.05 | 0.0% |
| O=C1NC(=O)C2(COC3(CCCC3)OC2)S1 | i | -1.09 | 3.9% |
| COc1ccc(NC(=O)c2oc3ccccc3c2NC(=O)c2ccco2)cc1 | i | -1.03 | 0.3% |
| O=c1oc2ccccc2cc1C1=Nn2c(nnc2-c2cccnc2)SC1 | i | 0.33 | 5.1% |
| Cc1nnc(SCC(=O)N2CC(=O)Nc3ccccc32)n1Cc1ccccc1 | i | x | 3.4% |
| CC(C)NS(=O)(=O)c1ccc(CCC(=O)NCc2ccc3c(c2)OCO3)cc1 | i | x | 1.3% |
| COC(=O)C1CCN(C(=O)CN2C(=O)NC(CCc3ccccc3)C2=O)CC1 (stereo not given) | i | 1.93 | 0.2% |
| CCOc1cc(C(=O)Nc2cnccn2)cc(OCC)c1OCC | i | 1.07 | -3.1% |
| N#Cc1cc2c(=O)n3ccccc3nc2n(CCCN2CCOCC2)c1=O | i | 1.74 | 20.2% |
| O=C(COC(=O)C12CC3CC(CC(O)(C3)C1)C2)N1CCN(S(=O)(=O)c2ccc(Cl)cc2)CC1 | i | -0.68 | 3.1% |
| COC(=O)CC1=C(C(=O)OC)C(c2cc(OC)c(OC)cc2OC)C(C#N)=C(N)O1 (stereo not given) | i | x | -2.7% |
| CCOC(=O)c1c(C)n(C)c2ccc(OCC(O)Cn3nc(C)cc3C)cc12 (stereo not given) | i | 0.58 | 8.3% |
| Cc1ccc(NC(=O)NC(=O)N(c2ccccc2)S(C)(=O)=O)cc1 | i | -0.54 | -3.0% |
| O=C(Nc1ccc(Cl)cc1)c1ccc2c(c1)OCO2 | i | 1.19 | -7.1% |
| O=C(NCCCN1CCC(Cc2ccccc2)CC1)C1CC(=O)N(C2CCCC2)C1 (stereo not given) | i | 0.99 | 0.5% |
| CCCc1[nH]nc2c1C(c1ccc(OC(=O)N3CCOCC3)c(OC)c1)C(C#N)=C(N)O2 (stereo not given) | i | -1.15 | 1.7% |
| CCn1c(SCc2nc3ccccc3nc2C)nnc1-c1cccs1 | i | -0.1 | -0.7% |
| COc1ccc2nc(NCc3ccccc3)[nH]c2c1 | i | -0.33 | 2.4% |
| COc1ccc(CC(NC(C)=O)C(=O)NC2CCN(C(=O)NCc3ccccc3)CC2)cc1 (stereo not given) | i | 0.46 | 1.7% |
| CC(C)(C)SCCNS(=O)(=O)c1ccccc1 | i | -0.97 | -3.9% |
| CCC(=O)Nc1nnc(CCc2ccccc2)s1 | i | x | 1.2% |
| O=c1[nH]cc(F)c(=O)[nH]1 | i | x | -3.8% |
| CC1(C)Cc2c(sc3nc(SCC(=O)NCc4ccccc4)n(-c4ccccc4)c(=O)c23)CS1 | i | x | -4.8% |
| CCCn1c(=O)c2ccccc2n2c(SCc3c(C(=O)OCC)oc4ccccc34)nnc12 | i | -0.42 | -2.4% |
| OCCOCCNc1ncnc2c1cnn2-c1ccccc1 | i | 0.53 | 1.8% |
| Cn1c(=O)c2c(nc(CN3CCOCC3)n2CCCc2ccccc2)n(C)c1=O | i | x | 15.1% |

Exported with values under each structure: 4 of the compounds above.
Each structure is followed by: MT1-MMP reporter, WNV protease inh, Hsc70 ATP site
O=C(NCc1ccco1)c1cc(S(=O)(=O)N2CCOCC2)ccc1Cl
→ i, 0.65, 1.6%
O=C(COC(=O)C12CC3CC(CC(O)(C3)C1)C2)N1CCN(S(=O)(=O)c2ccc(Cl)cc2)CC1
→ i, -0.68, 3.1%
COC(=O)c1cccc(Nc2cc(C)nc(-c3ccccc3O)n2)c1
→ i, 0.5, 46.0%
CC(C)Oc1ccc2c(=O)c(-c3ccccc3)coc2c1
→ i, 0.36, 1.0%

Next part.
| structure | MT1-MMP reporter | WNV protease inh | Hsc70 ATP site |
| --- | --- | --- | --- |
| O=C1C2C3C=CC(C3)C2C(=O)N1Cc1cccnc1 (stereo not given) | i | -0.77 | 6.5% |
| CC1=C/C(=N\OS(=O)(=O)c2ccccc2)C=CC1=O | i | x | 2.0% |
| Cc1nn2c3c(cnc2c1-c1ccccc1)C(=O)CC(c1ccccc1)C3 (stereo not given) | i | x | 0.6% |
| COC(=O)CCC(=O)Nc1ccc(OC)cc1 | i | -0.13 | -0.2% |
| O=C(NC1CC1)c1ccc(-c2nc3ccccc3s2)s1 | + | -0.78 | 1.2% |
| CSc1ccc(-c2c(C#N)c(N)nc3c2c(C)nn3-c2ccccc2)cc1 | i | 0.00962 | -9.1% |
| CC(=O)c1cccc(-n2c(CCC(=O)O)ccc2-c2cccs2)c1 | i | 0.73 | -16.9% |
| CCOC(=O)C(C(=O)Nc1ccccc1)C1CCCCC1 (stereo not given) | i | 2.32 | 4.7% |
| CCCNC(=O)CSc1nnc(C)s1 | i | x | 5.3% |
| CC(=O)Oc1ccccc1C1OCCN1C(C)=O (stereo not given) | i | 0.5 | -1.2% |
| COc1ccccc1NC(=O)NC1(C(=O)N2CCC(O)CC2)CCCCC1 | i | -0.07 | 7.7% |
| Cc1ccccc1NC(=O)c1cccc2nccnc12 | i | 1.96 | -5.2% |
| Cc1cccc(C)c1NC(=S)N1CCC(N(C)CC2CCCO2)CC1 (stereo not given) | i | x | 0.6% |
| COc1cccc(OC)c1C(=O)Nc1nnc(C(C)C)s1 | i | 1.62 | -3.1% |
| COC(=O)c1cccc(S(=O)(=O)N2CCCCC2)c1 | i | -0.66 | -0.5% |
| O=C(CCCn1c(=S)[nH]c2cc3c(cc2c1=O)OCO3)N1CCN(c2ccccn2)CC1 | i | -0.02 | -4.4% |
| COc1ccc2cc(C(c3nnnn3CCc3ccccc3)N3CCCC(C)C3)c(=O)[nH]c2c1 (stereo not given) | i | -0.45 | -13.8% |
| Cc1ccc2nc(Nc3ncc4c(n3)CCCC4=O)nc(C)c2c1 | i | -1.34 | -12.5% |
| Cc1ccc(S(=O)(=O)NCC(=O)N(CC(=O)NCC2CCCO2)Cc2ccccc2)cc1 (stereo not given) | i | -1.09 | -7.2% |
